Source: PubChem (National Center for Advancing Translational Sciences (NCATS))
Sfp inh: qHTS Assay for Inhibitors of Bacillus subtilis Sfp phosphopantetheinyl transferase (PPTase); 4'-phosphopantetheinyl transferase ffp (Bacillus subtilis), Q9F4F7; Potency, µM, without a hit: max response, negative = inhibition, usual class: inhibitors; AID 1490, 2009; Biochemical Sfp PPTase activity, qHTS; 310,000 compounds, 3.5% hits; active = well fitted inhibition curve with a large enough effect; inconclusive = small, poorly fitted or top-dose-only effect, or another doubt; inactive = no such curve, though single readings can be large or run the other way;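 also: the enzyme is Sfp with the accession as filed and its product quenches rhodamine fluorescence; potency is read from the fitted curve at half-maximal effect; 0% = enzyme reaction without inhibitor and -100% = no enzyme wells; top concentration of the series not given in the record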
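Compounds were incubated with enzyme (final 15 nM) for 15 min at room temperature before substrate addition started the reaction. Fluorescence at 525 nm excitation, 598 nm emission was recorded immediately and after 30 minutes.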
PINK1 expr mod: A Quantitative High throughput Screen to Identify Chemical Modulators of PINK1 Expression; AID 624263, 2012; PINK1 immunofluorescence, high-content cytometry, 24 h; Potency, µM (highest dose often 76.6 µM), inactives show top-dose activation (PINK1 increase), most hits filed as activators; 410,000 compounds, 0.2% hits; active = well fitted activation curve with a large enough effect; inconclusive = small, poorly fitted or top-dose-only effect; inactive = flat fitted curve, though single readings scatter; cell line not stated here;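 also: potency is read from the fitted curve at half-maximal effect; % of control where 0% means no effect; nearly all actives have a fitted effect of over 65% in size; a mitochondrial uncoupler was the plate control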
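Stable cell line, 250 cells/well, 12 h attachment; compounds pinned at 5 concentrations, 24 h; CCCP control. Fixed with nuclear dye, primary antibodies 12 h at 10 degrees C, secondary plus cell stain; laser-scanning cytometer read.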
TRPV1 potentiator: HTS Assay for Compounds that Act as Potentiators of the Vanilloid Receptor 1. Transient receptor potential cation channel subfamily V member 1 (Homo sapiens), Q8NER1. TRPV1-expressing cells, Fluo-8 calcium influx, capsaicin EC20 potentiation; host cell line not named in the record; control for the full effect not named in the record. potentiation, % at 8.33 µM. 320,000 compounds, 0.02% hits. AID 540277, 2011; active means potentiation above 80%; inconclusive means 30% to 80%; inactive means below 30%; also: 0% is about no effect
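Fluo-8 calcium influx in TRPV1-expressing cells, kinetic read (ex 480/em 520 nm). Compound added and read 3 min for agonist activity, followed by capsaicin at EC20 final and 2 min further read for enhancement.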
D2 PAM: Beta-Arrestin HTS for Positive Allosteric Modulators of the Human D2 Dopamine Receptor: Potentiators. potentiation, % (concentration not given with the values). DiscoveRx D2 beta-arrestin cells, luminescence, 90 min; 100% = 57 uM dopamine signal. D(2) dopamine receptor (Homo sapiens), P14416. 360,000 compounds, 0.23% hits; active = potentiation of 50% or more; inconclusive = 30% to 50%; inactive = 30% or less;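 also: tested on top of an EC20 dose of dopamine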
Target sequence (P14416 whole entry, looked up): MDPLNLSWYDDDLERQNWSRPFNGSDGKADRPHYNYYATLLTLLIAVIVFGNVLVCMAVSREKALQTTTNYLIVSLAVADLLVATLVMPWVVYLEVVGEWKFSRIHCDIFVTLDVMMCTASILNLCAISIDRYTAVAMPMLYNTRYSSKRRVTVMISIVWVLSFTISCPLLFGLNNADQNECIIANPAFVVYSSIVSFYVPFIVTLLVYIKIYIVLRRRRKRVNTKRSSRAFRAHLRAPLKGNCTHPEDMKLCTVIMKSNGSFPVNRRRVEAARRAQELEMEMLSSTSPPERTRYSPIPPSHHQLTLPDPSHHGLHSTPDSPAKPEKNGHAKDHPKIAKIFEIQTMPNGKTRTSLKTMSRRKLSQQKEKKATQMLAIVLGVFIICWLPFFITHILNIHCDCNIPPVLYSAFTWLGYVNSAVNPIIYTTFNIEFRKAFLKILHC
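PathHunter D2 cells, attached overnight at 37 deg C, received compound in DMSO plus dopamine at EC20 (50 nM final) for 90 min at 37 deg C. Beta-arrestin recruitment was read as luminescence after 1 h with detection reagent at ambient temperature.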
CtBP-E1A inh: qHTS Assay for Inhibitors of the CtBP/E1A Interaction; activity change, % (concentration not given with the values); CtBP / adenovirus E1A interaction (AlphaScreen); AlphaScreen GST-E1A/His-CtBP binding, 1536-well; stronger effect = lower value; control for the full effect not named in the record; 340,000 compounds, 0.49% hits; in the data active means activity change below about -65%; inconclusive means about -30% to -65%; inactive means above about -30%; also: % is scaled to controls: 0 for no effect and ±100 for the full control effect
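Homogeneous bead-based format: GST-tagged E1A captured on glutathione donor beads, His-tagged CtBP on nickel acceptor beads; compounds precede bead addition by 2 h at 37 °C.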
Six1-Eya2 blk: qHTS Assay for Inhibitors of the Six1/Eya2 Interaction; activity change, % (no concentration beside the values); Homeobox protein SIX1 (Homo sapiens) + Protein phosphatase EYA2 (Homo sapiens), …; AlphaScreen GST-Six1/His-Eya2 binding, biochemical; stronger effect = lower value; control for the full effect not named in the record; 360,000 compounds, 0.56% hits; in the data active = activity change below about -65%; inconclusive = about -30% to -65%; inactive = above about -30%; also: % is scaled to controls: 0 for no effect and ±100 for the full control effect
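GST-Six1 + His-Eya2 (5X stock: 250/500 nM); Tris pH 8.0, 300 mM NaCl, 0.05% BSA, 0.02% Tween 20; GSH donor/Ni acceptor beads; 1 h 37 °C dark; AlphaScreen readout.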
D2 agonist: Beta-Arrestin HTS for Positive Allosteric Modulators of the Human D2 Dopamine Receptor: Agonists. D(2) dopamine receptor (Homo sapiens), P14416. DiscoveRx PathHunter D2 beta-arrestin, luminescence, 90 min; 100% = 57 uM dopamine signal. activation, % (test concentration not listed). 360,000 compounds, 0.084% hits. AID 624465, 2012; in the data active = activation above about 40%; inconclusive = about 15% to 40%; inactive = below about 15%; also: compound concentration not given in the record; the text of the record calls up to 30% inactive
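DiscoveRx PathHunter D2 beta-arrestin cells (2,100/well) attached overnight, then compound-stimulated 90 min at 37 C in HBSS/10 mM HEPES/0.1% Tween-20 buffer; beta-galactosidase complementation read by luminescence after 1 h at ambient temperature. Dopamine 57 uM final (EC100) as control.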
* marks the source's active call; other numbers are inactive results; ? = inconclusive; . = not tested or not shown; & = joins results of further samples; [ ] = dose if it differs, or a comment.

SMILES | Sfp inh | PINK1 expr mod | TRPV1 potentiator | D2 PAM | CtBP-E1A inh | Six1-Eya2 blk | D2 agonist
Cc1ccc(C(C)C)c(OCCN(C)C)c1 | ? | -3.7% | 4.5 | -28.3 | -0.1 | -3.3 | 0.4
CCCC(=O)Nc1cc(OC)c(NC(=S)Nc2cccc(C)c2)cc1OC | . | 1.0% | . | 7.9 | -2.2 | -22.5 | 3.8
COc1ccc(/C=C/C(=O)C2(O)CCCCC2)cc1OC | 3.5% | -0.5% | -0.3 | -0.8 | 5.7 | 5.6 | -3.9
C/C(CC(=O)Nc1cccc(C(F)(F)F)c1)=N\NC(=O)C1CCCCC1 | 23.4% | -1.1% | 0.5 | -5.8 | 0.6 | -0.9 | -2.9
O=C(NCC1COc2ccccc2O1)c1cc2ccccc2o1 (stereo unspecified) | -1.5% | 0.1% | -16.0 | -25.8 | 3.5 | 22.7 | 1.3
O=C(/C=C/[C@H]1O[C@@H](n2cnc3c(NC(=O)c4ccccc4)ncnc32)[C@H](O)[C@@H]1O)NCc1ccc2c(c1)OCO2 | . | 1.6% | . | -1.5 | 0.8 | -9.3 | -3.2
COc1ccc(C2c3cc(OC)c(OC)cc3CCN2C(=O)c2ccccc2)cc1OC (stereo unspecified) | 0.0% | -0.2% | -3.2 | 5.5 | 10.4 | -4.0 | -0.2
Cc1ccc(C)c(OCC(=O)O/N=C(\N)c2cccnc2)c1 | -4.2% | -0.9% | 16.6 | -2.6 | 7.1 | 15.5 | 2.2
CCOC(=O)C1CCN(C(=O)CN(c2cc(OC)ccc2OC)S(=O)(=O)c2ccccc2)CC1 | 17.5% | -0.4% | -11.7 | -13.7 | 9.1 | 1.9 | -3.0
CCOC(=O)c1nnc(-c2ccc(C)cc2)nc1Sc1ccccc1Cl | 2.5% | -3.0% | 0.8 | 0.6 | 11.5 | 10.1 | 5.3
CN1CCN(CCCNC(=O)Cn2ncc3c4ccccc4n(C)c3c2=O)CC1 | 1.9% | 5.0% | 10.7 | -7.2 | 2.0 | -7.0 | -3.2
CCC(=O)N(C)CCc1cc2c(c(OC)c1/C=N/NC(=O)c1ccccc1O)OCO2 | 13.9% | 1.9% | 18.7 | -12.8 | -3.8 | 3.3 | -1.0
CN(C)/C=C/C(=O)c1cnc(-c2ccccc2)s1 | 18.2% | 1.1% | -5.6 | -5.0 | -0.1 | 2.5 | 7.3
O=C(NCCN1CCN(Cc2ccccc2)CC1)c1cc2c(=O)[nH]c3ccccc3c2s1 | -1.8% | . | 1.7 | -34.7 | 5.4 | ? | 1.1
O=C(COC(=O)C1=COCCO1)Nc1ncc(Cl)cc1Cl | . | 3.4% | 4.8 | 13.1 | 1.8 | -9.2 | -3.7
CC(C)Oc1cc(NC(=O)CSCC(=O)Nc2cccc(C(F)(F)F)c2)c(Cl)cc1Cl | 14.8% | . | 0.0 | -3.2 | 9.2 | 2.6 | -0.8
Cc1ccc(N2C(=O)C(Cl)=C(N3CCCCCC3)C2=O)c(C)c1 | -11.6% | -0.1% | 6.5 | -5.7 | 64.4 | 77.2 | 1.3
CC(NC(=O)c1ccccc1F)c1nnc(SCC(=O)Nc2nnc(C3CC3)s2)n1C (stereo unspecified) | . | 3.1% | 4.7 | -0.4 | 14.9 | 4.4 | -4.0
COc1ccc2c(c1)C(c1cccs1)=NNC(c1ccncc1)=N2 | -4.8% | 0.1% | -13.7 | -9.1 | -0.5 | -15.9 | 1.0
c1cc2c(cc1C1CCCCC1)c1c3n2CCCNC3CCC1 (stereo unspecified) | 31.6µM* | -1.5% | -5.9 | -6.1 | -28.9 | ? | -2.7
CC(C)NC(=O)N(C)C[C@@H]1Oc2ccc(NC(=O)CCN3CCOCC3)cc2CC(=O)N([C@@H](C)CO)C[C@@H]1C | . | -0.2% | . | -7.0 | 0.0 | -0.8 | -0.9
Cc1nn2c(NCCCn3ccnc3)cc(C(C)C)nc2c1-c1ccccc1 | -26.2% | -0.4% | -29.8 | 16.8 | -9.6 | -15.7 | 1.1
COc1ccc(C2=[N+](C)CCn3cccc32)c(OC)c1 | 18.3% | 0.4% | -3.8 | 0.7 | 19.3 | 7.5 | -5.6
C=CCNC(=O)CSc1ccc(Cl)cc1 | 16.2% | 2.0% | 13.1 | -13.3 | 3.9 | 1.4 | -1.8
COc1ccccc1C(=O)N/C(=C/c1ccc(Br)cc1)C(=O)N1CCOCC1 | . | -0.4% | . | -6.6 | -1.6 | -7.1 | 1.2
CCCCn1c(N)c(N(CCOC)C(=O)COC(=O)c2cc(CCC)c(C)s2)c(=O)[nH]c1=O | . | 1.4% | 1.5 | 3.4 | -4.9 | 3.5 | 0.5
COC(=O)c1ccccc1S(=O)(=O)N1CCC(C(=O)OCC(=O)NC2CCCCC2C)CC1 (stereo unspecified) | . | -0.8% | -0.3 | -3.2 | -2.5 | -0.8 | -3.0
CCN1CCCC1CNC(=O)c1cc2c(=O)n(C)c3ccccc3c2n1C (stereo unspecified) | -2.6% | 9.3% | ? | -0.6 | -0.5 | -4.8 | 0.9
Cc1ccccc1C1=NC(C(F)(F)F)(C(F)(F)F)c2c(n(-c3ccc(F)cc3)c(=O)[nH]c2=O)N1 | 12.9% | 2.9% | ? | 1.8 | -0.6 | 1.9 | -3.9
CN(C1CCCC1)C1CCN(C(=O)CNC(=O)/C=C/c2cccc(C(F)(F)F)c2)CC1 | 15.5% | -1.2% | -4.6 | -3.4 | . | 3.1 | 0.0
COc1ccc(C(=O)COC(=O)C(CC(C)C)N2C(=O)c3ccccc3C2=O)cc1 (stereo unspecified) | -2.7% | 1.0%[38.3 µM] | ? | -8.2 | -0.2 | 0.1 | -1.8
COc1ccc(NS(=O)(=O)c2cccc(C(=O)NCCCN3CCCC3=O)c2)cc1 | . | -0.9% | -11.4 | -1.7 | -5.1 | 2.0 | -1.0
COc1ccc(OC)c(S(=O)(=O)Nc2ccccc2C(F)(F)F)c1 | 18.8% | -3.4% | -3.3 | -5.4 | -2.9 | 8.6 | -1.5
COc1ccccc1N1CN(Cc2ccccc2)CNC1=S | 8.0% | 0.9% | 11.6 | 1.0 | -4.2 | 12.3 | -5.5
CCN(CC(=O)Nc1ccccc1C(F)(F)F)CC(=O)NC1CC1 | . | 0.5% | -4.4 | -10.4 | 6.8 | 0.0 | -2.1
COc1ccc(NC(=O)c2ccc(=O)[nH]c2)cc1S(=O)(=O)N1CCOCC1 | . | 0.3% | -0.1 | -21.8 | -3.7 | -3.1 | -1.7
Cc1nnsc1NC(=O)OCc1ccccc1Cl | 9.2% | 2.2% | 1.3 | -28.4 | 35.8 | 20.0 | -4.9
CCN(CC)CCOC(=O)C1(c2ccc([N+](=O)[O-])cc2)CCCC1 | 7.6%&13.2%&-0.1% | 0.6% | 3.2 | -24.8 | -7.1 | -0.9 | -1.7
C=C1CC(Cn2cc(Br)c(=O)[nH]c2=O)(c2ccc(-c3ccccc3)cc2)OC1=O (stereo unspecified) | . | -2.0% | . | -30.3 | -0.5 | -13.9 | -4.3
CCOC(=O)c1cc(C(C)=O)c(=O)[nH]c1C | 2.4% | 1.5% | 2.6 | -1.8 | . | 1.5 | 0.6
Cc1ccc(N(Cc2cc3ccc(C)cc3[nH]c2=O)C(=O)c2cccs2)cc1 | 10.3% | 6.0% | 11.2 | -7.4 | 3.7 | 0.2 | -1.1
Cc1ccccc1N(CC(=O)N1CCc2ccccc2C1)S(C)(=O)=O | 1.8% | -1.0% | 22.5 | -2.4 | 5.6 | 2.1 | 1.1
CC(C)C(=O)N1CCN(c2ccc(NC(=O)c3ccc(Br)o3)cc2)CC1 | 8.9% | 0.0% | 5.9 | 15.1 | 5.5 | 5.6 | 1.9
CC(=O)Oc1ccc(-c2cccc(C(=O)OCC(=O)N(C)c3ccccc3)c2)cc1 | 9.2% | 1.7% | 8.9 | -22.9 | 3.6 | -3.6 | -0.1
Cc1ccc(-n2c(Cc3cccn3C)nnc2SCC(=O)Nc2ccc3c(c2)OCO3)cc1 | -2.4% | -5.1%[38.3 µM] | -9.1 | -18.2 | -16.0 | -17.3 | 4.4
CCOC(=O)c1c(N)nn(C(=O)C(C)C)c1-c1ccccc1 | ? | ? | . | -33.9 | 7.3 | 11.1 | -8.9
COc1ccc(C(=O)NC2CC2)cc1OC1CCN(Cc2cnn(C)c2C)CC1 | 7.2% | 1.1% | -0.7 | -21.0 | -2.3 | 5.1 | -5.4
CC(Cl)=CCn1c(NCCc2ccccc2)nc2c1c(=O)n(C)c(=O)n2C | . | 1.5% | . | 2.4 | 1.2 | -3.1 | 7.8
COc1ccc(-c2cc(NC=O)c3ncc(-c4cnn(C)c4)n3c2)cc1 | . | 3.2% | . | -11.9 | -9.5 | -2.8 | -5.1
Cc1cc(C)c(C#N)c(SCc2ccccc2F)n1 | -4.4% | 5.2% | 0.8 | 0.9 | 27.1 | 21.2 | 0.1
O=C(c1ccccc1Oc1ccc([N+](=O)[O-])cc1)N1CCOCC1 | 16.8% | -1.0% | 13.2 | -10.0 | -0.8 | 1.0 | -4.5
CC(C)(C)c1ccc(S(=O)(=O)NC(=O)C2(C)CCN2C(=O)C2CC2)cc1 (stereo unspecified) | . | 0.2% | . | -4.2 | 6.8 | 7.9 | -4.8
O=C(Oc1ccccc1N1C(=O)C2CC=CCC2C1=O)c1ccc(Br)cc1 (stereo unspecified) | -13.0% | 3.2% | -17.4 | -5.2 | -19.0 | -6.2 | 0.2

A second format for part of the listing above.
Each structure is followed by: Sfp inh	PINK1 expr mod	TRPV1 potentiator	D2 PAM	CtBP-E1A inh	Six1-Eya2 blk	D2 agonist
- Cc1cc(C)c(C#N)c(SCc2ccccc2F)n1
 : -4.4%	5.2%	0.8	0.9	27.1	21.2	0.1
- O=C(c1ccccc1Oc1ccc([N+](=O)[O-])cc1)N1CCOCC1
 : 16.8%	-1.0%	13.2	-10.0	-0.8	1.0	-4.5
